# Cruzain inh noDet: inhibitors of Trypanosoma cruzi cruzain without detergent | P25779 | purified cruzain, Z-FR-AMC fluorescence, no detergent | Potency, µM, without a hit: max response, negative = inhibition, hits mostly inhibitors | actives 2.3% (n = 200,000) | AID 1476;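 further: plate controls were enzyme without inhibitor for no effect and buffer without enzyme for full effect; nearly all actives have a fitted effect of over 40% in size; top concentration of the series not given in the record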
# Target sequence (P25779 123-467 limits assumed): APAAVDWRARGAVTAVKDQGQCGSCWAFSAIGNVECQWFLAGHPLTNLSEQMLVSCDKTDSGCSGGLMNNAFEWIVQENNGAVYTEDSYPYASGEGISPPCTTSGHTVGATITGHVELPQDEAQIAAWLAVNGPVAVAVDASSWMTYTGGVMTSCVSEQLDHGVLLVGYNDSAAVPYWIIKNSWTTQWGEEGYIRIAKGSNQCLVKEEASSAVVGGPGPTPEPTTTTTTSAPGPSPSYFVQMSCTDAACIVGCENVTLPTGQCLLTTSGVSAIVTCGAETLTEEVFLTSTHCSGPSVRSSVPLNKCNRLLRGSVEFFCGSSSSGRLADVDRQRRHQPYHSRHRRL
#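 Detergent-free condition (0.00005% Triton X-100) in acetate buffer pH 5.5 with DTT. 1.5 nM enzyme and compound were pre-mixed 15 min, then 2 uM Z-FR-AMC substrate added; reaction progress from fluorescence change between first and third reads (60 s).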
# SARS PLP yeast: inhibitors of SARS-CoV papain-like protease in yeast | S. cerevisiae expressing SARS-CoV PLpro, growth rescue; control for the full effect not named in the record | Potency, µM (series often up to 32.9 µM), for inactives: at the top dose activity, positive = growth rescue | actives 0.19% (n = 330,000); active means well fitted rising curve with a large enough effect; inconclusive means small, poorly fitted or top-dose-only effect; inactive means no such curve, though single readings can be large or run the other way; further: 0% is about no effect; nearly all actives have a fitted effect of over 55% in size; growth read by luminescence after 48 h
# LASV entry inh: blocks Lassa virus binding to or entry into cells | Lassa virus pseudotype entry inhibition, cell reporter; control for the full effect not named in the record | Potency, µM (top dose mostly 37.9 µM), inactives show top-dose activity change, negative = inhibition, actives largely listed as inhibitors | actives 1.2% (n = 300,000) | AID 540256; active means well fitted inhibition curve with a large enough effect; inconclusive means small, poorly fitted or top-dose-only effect, or effect the other way; inactive means flat fitted curve, though single readings scatter; tested in HEK293 cells; further: on the % scale 0 is the no-effect control and ±100 the full control effect; nearly all actives have a fitted effect of over 50% in size; luciferase read-out
# 2A StopGo: FMDV 2A StopGo reporter, luciferase signal; human cells with a luciferase reporter of 2A StopGo recoding; control for the full effect not named in the record; Potency, µM (titrated, usually from 57.9 µM), for inactives: at the top dose signal change, negative = less light; actives 1.2% (n = 410,000); AID 1159524; active = well fitted falling curve with a large enough effect; inconclusive = small, poorly fitted or top-dose-only effect; inactive = no such curve, though single readings can be large or run the other way; tested in HEK293T cells; further: on the % scale 0 is the no-effect control and ±100 the full control effect; nearly all actives have a fitted effect of over 45% in size; luciferase light after 4 h
# NS1 inh: inhibitors of influenza NS1 protein function; actives 0.4% (n = 270,000); Potency, µM (highest dose often 46.1 µM), for the others: at the highest dose activity, positive = more growth; S. cerevisiae slowed by influenza A NS1, growth recovery by OD600; active means well fitted rising curve with a large enough effect; inconclusive means small, poorly fitted or top-dose-only effect; inactive means no such curve, though single readings can be large or run the other way; further: nearly all actives have a fitted effect of over 50% in size
#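 Compounds were scored for reversing the slow growth caused by influenza A NS1 in S. cerevisiae, measured by optical density at 600 nm. Assay medium contained 2% galactose at pH 6.0; NS1-free yeast of the same strain were the positive control.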
# MARV entry inh: inhibitors of Marburg virus binding or cell entry. Potency, µM (titrated, usually from 37.8 µM), for the others: at the highest dose activity change, negative = inhibition, most hits filed as inhibitors. Marburg virus pseudotyped entry inhibition, cell reporter; control for the full effect not named in the record; about a third of the inactives were read at about 46 µM. actives 1.8% (n = 300,000); active = well fitted inhibition curve with a large enough effect; inconclusive = small, poorly fitted or top-dose-only effect, or effect the other way; inactive = flat fitted curve, though single readings scatter; tested in HEK293 cells; about a fifth of its hits are not listed in these tables; further: on the % scale 0 is the no-effect control and ±100 the full control effect; luciferase read-out
# RE007 growth inh: less growth of the S. pombe RE007 Vpr strain; Potency, µM (top dose mostly 92.2 µM), inactives show top-dose activity change, negative = less growth; actives 0.21% (n = 360,000); S. pombe RE007 Vpr strain, BacTiter-Glo ATP luminescence, 24 h; control for the full effect not named in the record; AID 651644; active = well fitted falling curve with a large enough effect; inconclusive = small, poorly fitted or top-dose-only effect; inactive = no such curve, though single readings can be large or run the other way;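 further: on the % scale 0 is the no-effect control and ±100 the full control effect; nearly all actives have a fitted effect of over 50% in size; the assay follows cell death caused by Vpr and the record does not say whether a fall means rescue or toxicity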
#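 Fission yeast strain RE007, carrying one chromosomally integrated HIV-1 vpr copy, was seeded at OD 0.01 in PMG+AL medium with 23 nL pinned compound. After 24 h at 30 °C and 99% humidity, viability was read by BacTiter-Glo luminescence.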
# Cruzain inh Det: cruzain (T. cruzi) inhibition with detergent. AID 1478. purified cruzain, Z-FR-AMC fluorescence, 0.01% Triton. Potency, µM, for the others: max response, negative = inhibition, most hits filed as inhibitors. P25779. actives 0.43% (n = 200,000);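 further: plate controls were neutral wells for no effect and buffer without enzyme for full effect; nearly all actives have a fitted effect of over 40% in size; top concentration of the series not given in the record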
#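 15 min RT preincubation of 1.5 nM cruzain with compound, then 2 uM Z-FR-AMC added; kinetic AMC fluorescence, 60 s delta. Triton X-100 0.01%, pH 5.5.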
# * hit, by the source's call; ? = inconclusive; · = not tested or not shown; [ ] = another dose, or the depositor's remark. Unless noted, the call rests on the fitted dose curve; in most records, active means well fitted curve in the direction sought with a large enough effect; inconclusive means small, poorly fitted or top-dose-only effect, or another doubt; inactive means no such curve, though single readings can be large; an effect the other way counts as inactive or inconclusive. Potency means the concentration at half of the fitted maximal effect.
SMILES,Cruzain inh noDet,SARS PLP yeast,LASV entry inh,2A StopGo,NS1 inh,MARV entry inh,RE007 growth inh,Cruzain inh Det
Clc1ccc(CSc2cc3c(nn2)-c2ccccc2CC3)cc1Cl,-25%,-5%,-1%,0%,-1%,12%,4%,0.8%
Cc1c(NC2=NC3(CCCCC3)Cc3ccccc32)c(=O)n(-c2ccccc2)n1C,-8%,19%,5%,10%,-1%,4%,-20%,3.8%
CCN(CC)CCN1C(=O)C(=O)/C(=C(/O)c2cnn(-c3ccccc3)c2C)C1c1cccs1 (stereo not given),0%,-5%,·,·,-1%,4%,·,-5.9%
CCN(C(=S)NC(=O)c1ccccc1Br)C1CCCCC1,-8%,-25%,-28%,-8%,-40%,?,-6%,-2.5%
COC(=O)c1c(NC(C)=O)sc(C(=O)Nc2ccccc2)c1C,·,-1%,1%,22%,-3%,-15%[46.1 µM],-1%,·
CCOC(=O)C(C)Sc1nc(-c2ccco2)cc(C(F)(F)F)c1C#N (stereo not given),16%,-3%,15%,?,-39%,2%,-8%,-12%
C=CCn1c(C(CC(C)C)CC(C)O)n[nH]c1=S (stereo not given),2%,8%,-3%,3%,-7%,-1%,30%,1.6%
COc1ccc(NC(=O)CN(c2ccccc2)S(=O)(=O)N(C)C)cc1OC,-12%,-2%,?,·,5%,0%,3%,-0.7%
Cc1ccc(NC(=O)CCC(=O)OC(C)C(=O)c2ccccc2)cc1 (stereo not given),·,2%,3%,-6%,0%,10%,0%,·
O=C(NCc1ccc(Cl)cc1)C1CCCN1C(=O)Nc1ccccc1 (stereo not given),·,0%,-3%,0%,16%,?,1%,·
COc1cccc(N/C(SC)=C(/C#N)C(=O)NCc2cccs2)c1,·,-3%,?,-15%,·,-23%[46.1 µM],13%,·
CCCc1cc(=O)[nH]c(SCC(=O)Nc2cccc(S(=O)(=O)N3CCOCC3)c2)n1,·,0%,25%,4%,·,11%,-18%,·
Cc1cc(C)cc(C(=O)OCC(=O)NCC(F)(F)F)c1,5%,1%,-2%,-18%,12%,-1%,-14%,-2.6%
Cc1ccc(-n2nc3c(c2NC(=O)CC(C)C)CS(=O)(=O)C3)cc1,·,0%,·,-10%,-4%,·,3%,·
Cc1nc([N+](=O)[O-])cn1CC(=O)c1ccccc1,·,3%,-7%,8%,8%,0%,-6%,·
CC(NC(=O)CSc1nc2ccccc2n1C)c1ccccc1 (stereo not given),·,-6%,-19%[46.1 µM],11%,14%,?,8%,·
CC1Cc2ccccc2N1C(=O)CN(C)S(=O)(=O)c1cccc2cccnc12 (stereo not given),-2%,-1%,·,-24%,-1%,·,2%,-0.2%
O=C(NC(=S)Nc1ccc(Br)c(Cl)c1)C1CC1,·,?,·,21%,-3%,·,4%,·
C=Cc1ccc(Cn2nc(-c3ccc(C)c(S(=O)(=O)N(CC)CC)c3)ccc2=O)cc1,?,·,-2%[46.1 µM],-15%,·,?,·,-8.9%
COc1ccc(/C(O)=C2/C(=O)C(=O)N(CCN(C)C)C2c2cccnc2)cc1C (stereo not given),·,0%,-9%,1%,4%,?,15%,·
CCC(C)C1NC(=O)C(NC(=O)C(CC(C)C)N(C)C(=O)C2CCCN2C(=O)C(C)O)C(C)OC(=O)C(Cc2ccc(OC)cc2)N(C)C(=O)C2CCCN2C(=O)C(CC(C)C)NC(=O)[C@H](C)C(=O)[C@H](C(C)C)OC(=O)CC1O (stereo not given in full),·,·,·,?,·,·,-11%,·
O=C(C1CC(=O)N(C2CCCCCCC2)C1)N1CCC2(CC1)OCCO2 (stereo not given),-6%,-4%,-5%,24%,-4%,-2%,-1%,6.7%
COc1ccc(S(=O)(=O)NCCSCc2ccco2)cc1OC,2%,-1%,?,·,10%,-4%,4%,2.3%
Cc1ccc(N(CC(=O)Nc2cc(Cl)ccc2Oc2ccccc2)S(C)(=O)=O)cc1C,1%,1%,?,?,17%,?,-14%,-0.9%
CC(=O)Nc1ccccc1OP1(=O)COc2ccccc2OC1,-8%,-20%,2%,9%,-66%,0%,-22%,-1.0%
CCOc1ccc(N(C(C)C(=O)N/N=C(\C)C(C)(C)C)S(C)(=O)=O)cc1 (stereo not given),5%,-4%,-1%,-8%,13%,8%,9%,-0.7%
CC(=O)Nc1ccc(NC(=O)C(C)OC(=O)CN2C(=O)C3CCCCC3C2=O)cc1 (stereo not given),·,7%,0%,-22%,·,3%,-10%,·
COc1ccc(/C=N\NC(=O)C2COc3ccccc3O2)cc1O (stereo not given),·,1%,·,6%,-2%,·,19%,·
CS(=O)(=O)N1CCCC(C(=O)N2CCC3(CC2)OCCO3)C1 (stereo not given),-3%,-3%,15%,·,1%,0%,5%,7.2%
CCOC(=O)c1nnc(-c2ccc(C)cc2)nc1Sc1ccc(Cl)cc1,9%,11%,-1%,?,?,14%,-5%,3.0%
COCCNC(=O)C1CCC(=O)N(c2ccc(OC)cc2)C1c1ccc(OC)c(OC)c1 (stereo not given),-3%,3%,18%,20%,-5%,-7%,-4%,5.0%
COc1ccc(NC(=O)Nc2cccc(-c3noc(C)n3)c2)cc1,1%,·,23%[46.1 µM],1%,·,·,·,0.2%
Cc1cccc(S(=O)(=O)c2cn(Cc3ccc(F)cc3)c3cc(N4CCOCC4)c(F)cc3c2=O)c1,12%,·,-18%[46.1 µM],-9%,·,·,·,-1.6%
Cc1cc(=O)[nH]c(N/N=C/c2c(C)nn(-c3ccccc3)c2Cl)n1,·,-1%,-2%[46.1 µM],?,-5%,?,6%,·
Cc1ccc(CNC(=O)c2ccccc2-n2cnnn2)cc1,·,0%,5%,17%,-1%,7%[46.1 µM],-16%,·
O=C(CN(c1ccccc1)S(=O)(=O)c1ccccc1[N+](=O)[O-])Nc1cccnc1,·,1%,-17%[46.1 µM],9%,11%,-22%[46.1 µM],4%,·
COc1c(Cl)ccc(Cl)c1C(=O)NC(=O)N1CCOCC1,-4%,2%,-8%,1%,-2%,4%,6%,1.4%
C=CCNC(=O)/C(=C/c1ccccc1OCC)NC(=O)c1ccccc1,-4%,25%,4%,5%,-1%,0%,-19%,-0.2%
CCCn1c(=O)c(C(=O)NNC(=O)c2ccc(Cl)cc2Cl)c(O)c2ccccc21,·,-4%,·,-2%,-22%,·,-9%,·
CC1CCN(S(=O)(=O)c2ccc3c(c2)N(CC(=O)NCCc2ccccc2)C(=O)CO3)CC1,25%,·,5%[46.1 µM],7%,·,·,·,-2.4%
O=C(Nc1cccnc1)c1cc(-c2cccs2)on1,-8%,-11%,-7%[14.3 µM],0%,-13%,-10%,6%,5.7%
CCOC(=O)N1N=C(C)CC1(O)c1ccc(Cl)cc1 (stereo not given),·,3%,7%,4%,·,3%[46.1 µM],0%,·
Fc1ccc(-n2ncc3c(NCCC4=CCCCC4)ncnc32)cc1,1%,·,25%[46.1 µM],28%,·,·,·,-2.0%
CC1(C)CC(NC(=O)C(=O)NCCc2ccccc2)CC(C)(C)N1,·,1%,·,-7%,0%,·,3%,·
COc1ccc(CCN2C(=S)N(c3ccc(Cl)cc3)C(=O)C2CC(N)=O)cc1OC (stereo not given),·,0%,-21%,-20%,0%,?,-9%,·
COCCn1c(SCC(=O)Nc2ccc(OC)cc2)nnc1-c1ccoc1C,·,2%,·,4%,-2%,?,10%,·
O=C(Cc1cccc(C(F)(F)F)c1)OCN1C(=O)c2ccccc2C1=O,·,-4%,·,0%,-6%,19%[46.1 µM],-24%,·
CCOc1ccc(N2CC(C(=O)Nc3nnc(C4CCCCC4)s3)CC2=O)cc1 (stereo not given),·,-1%,20%,-6%,9%,6%[46.1 µM],3%,·
O=C(N/N=C/c1ccc(Cl)s1)C(O)c1ccccc1 (stereo not given),·,6%,·,123%[activator],2%,·,7%,·
N#C/C(=C\c1ccc(OC(=O)c2ccccn2)cc1)C(N)=O,6%,-31%,9%,5%,-1%,19%,-10%,-1.4%
Cc1ccc(-c2nn(-c3ccccc3)cc2C(=O)NCC(c2cccs2)N2CCOCC2)cc1 (stereo not given),·,-11%,-13%,3%,·,?,0%,·
Cn1c(=NC(=O)c2cnccn2)sc2ccccc21,-18%,-2%,-25%,11%,-51%,-24%[46.1 µM],-15%,-7.7%
Cc1cc(OCCCC(=O)Nc2cc(S(=O)(=O)N3CCOCC3)ccc2N2CCOCC2)ccc1Cl,·,·,?,-18%,·,?,11%,·
CCOC(=O)N1CCN(C(=O)CCn2c(=S)[nH]c3cc(OCC)c(OCC)cc3c2=O)CC1,?,8%,·,·,-5%,·,·,0.4%
O=C(CSc1nnc2ccccn12)NCc1ccc2c(c1)OCO2,·,-1%,·,13%,-2%,·,-13%,·
O=C(OCc1c(Cl)nc2sccn12)c1cc2c(s1)CCCC2,1%,1%,-7%,-7%,-73%,-5%,-12%,-5.5%
NC(=O)CCC(NS(=O)(=O)c1ccc(Cl)cc1)C(=O)NCc1ccccc1Cl (stereo not given),15%,18%,6%,-12%,-4%,15%,3%,2.2%
COC(=O)CSc1nc(C)cc(C(F)(F)F)c1C#N,-2%,2%,9%,0%,-12%,-10%[46.1 µM],0%,-0.7%
Nc1c(C(=O)NCc2ccc3c(c2)OCO3)c2nc3ccccc3nc2n1CCCN1CCOCC1,?,-23%,?,·,-43%,?,5%,-3.8%
CSc1ccc(C(=O)C2CCCN(C(=O)c3cccnc3SC)C2)cc1 (stereo not given),·,1%,·,-14%,-3%,·,9%,·
CSCCC(NC(=O)COc1ccccc1)C(=O)N1CCN(c2ccccc2O)CC1 (stereo not given),·,·,14%[46.1 µM],32%[activator],·,0%,8%,·
CC(=O)c1c(O)cc(=O)oc1-c1ccc(C)cc1,·,·,2%[46.1 µM],0%,·,0%[46.1 µM],-8%,·

# Source: PubChem
